Measles inh = inhibitors of measles virus growth in cells, primary screen, measles RdRp inhibitor project, cell-based, single point, HTS; infected Vero cells, GFP fluorescence, 64 h; hits give low values; z-score (no concentration beside the values); hit rate 0.1% among 33,000; AID 745, 2007;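 active = z-score under -3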;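 note: score is relative to mean and SD of the compound wells of a plate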
Numbers without * were called inactive.

structure | Measles inh
CC(C)OCCCNC(=O)C1CCC(Cn2c(=S)[nH]c3ccccc3c2=O)CC1 (stereo unspecified) | -0.62
CC(C)NC(=O)c1cc2n(n1)C(C(F)(F)F)CC(c1ccco1)N2 (stereo unspecified) | -1
N#Cc1c(C(F)(F)F)cc(-c2ccc3c(c2)OCCO3)nc1SCc1ccccn1 | 0.28
COc1ccc(C2CC(C(F)(F)F)n3nc(C(=O)NCc4cccs4)cc3N2)cc1 (stereo unspecified) | 0.48
CCN(CC)S(=O)(=O)c1ccc(C(=O)Nc2sc3c(c2C(N)=O)CC(C)CC3)cc1 (stereo unspecified) | 1.3
CN(CC(=O)N1CCCC1=O)Cc1ccccc1 | 1.6
CC(NC(=O)CCn1c(=S)[nH]c2ccsc2c1=O)c1ccccc1 (stereo unspecified) | -0.5
CC1=CC(C)(C)Nc2ccc(OC(=O)c3ccc(C)cc3)cc21 | 4.7
CCOc1ccc(NC(=O)C(NS(=O)(=O)c2cccs2)C(C)C)cc1 (stereo unspecified) | -0.09
N#CCSc1nc2cc3c(cc2c(=O)n1CCC(=O)N1CCN(c2ccccc2)CC1)OCO3 | -1.3
Cc1nc2ccccc2n1-c1nc(-c2ccc(F)cc2)cc(C(F)(F)F)n1 | -0.92
O=C1C(=O)N(CC2CCCO2)C(c2ccc(Br)cc2)/C1=C(\O)c1ccccc1 (stereo unspecified) | 0.09
COCc1cc(C)nc2sc(C(=O)O)c(N)c12 | 0.39
CCc1ccc(C(=O)CC2(O)C(=O)Nc3ccc(C)cc32)cc1 (stereo unspecified) | -0.23
CCc1ccc(OCC(=O)Nc2ccc(S(N)(=O)=O)cc2)cc1 | 0.55

Some of these compounds in order of their number in Measles inh, lowest first.
structure | Measles inh
CC(C)OCCCNC(=O)C1CCC(Cn2c(=S)[nH]c3ccccc3c2=O)CC1 (stereo unspecified) | -0.62
COc1ccc(C2CC(C(F)(F)F)n3nc(C(=O)NCc4cccs4)cc3N2)cc1 (stereo unspecified) | 0.48
CC1=CC(C)(C)Nc2ccc(OC(=O)c3ccc(C)cc3)cc21 | 4.7

(further entries)
structure | Measles inh
COc1cc(C2Nc3ccc(C(=O)c4ccccc4)cc3NC3=C2C(=O)CCC3)cc(OC)c1OC (stereo unspecified) | 0.21
O=C(CCN1C(=O)COc2ccccc21)NCc1cccs1 | -1.5
Cc1ccc(CNC(=O)C2CCC(CNS(=O)(=O)c3cccs3)CC2)cc1 (stereo unspecified) | -0.69
O=C(Nc1ccc2c3c(cccc13)CC2)c1ccc(Cl)cc1 | -0.53
CCOC(=O)c1c(NC(=O)c2ccccc2F)sc(C(=O)Nc2ccc3c(c2)OCO3)c1C | -0.73
CC(C)N(C(=O)Cn1c(=O)[nH]c2ccccc21)c1ccccc1 | -0.32
O=C(CSc1nc2[nH]ncc2c(=O)n1-c1ccccc1)c1ccc(Br)cc1 | 0.02
Cc1ccc(N2C(=O)c3ccc(C(=O)Nc4ccc([N+](=O)[O-])cc4)cc3C2=O)cc1 | 0.75
Cc1ccccc1NC(=O)CN(c1cccc([N+](=O)[O-])c1)S(=O)(=O)c1ccccc1 | -0.64
CC(C)(C)n1nc2c(c1NC(=O)c1cccs1)CS(=O)C2 (stereo unspecified) | -0.28
CCOc1ccc(-n2c(=O)c3c(C)c(C)sc3n(CC(=O)N3CCC(C)CC3)c2=O)cc1 | 0.1
CCCCN(CC)C(=O)C1c2ccccc2Oc2ccccc21 | 0.65
CCCN1CNC(=S)N(c2ccccc2)C1 | 0.55
O=C(CCn1c(=O)c2sccc2n(Cc2ccccc2)c1=O)NCc1ccccc1 | -0.74
Cc1ccc(CNC(=O)CCCN2C(=O)COc3ccc(C)cc32)cc1 | -0.64

Additional compounds follow.
structure | Measles inh
O=C(Cc1ccc(Cl)cc1)Nc1ccc(Br)cn1 | -0.17
Cc1ccc(CNC(=O)Cn2c(=O)n(CCc3ccccc3)c(=O)c3c(C)c(C)sc32)cc1 | -0.1
O=c1c2cc(N3CCOCC3)ccc2nc(SCc2ccc(Cl)cc2)n1Cc1ccc2c(c1)OCO2 | -0.44
O=C(COc1ccc([N+](=O)[O-])cc1)Nc1ccc(O)cc1C(=O)O | -0.05
Cc1cccc(C(=O)Nc2nccs2)c1 | 0.14
COc1cccc(NC(=O)CCS(=O)(=O)c2ccc(Br)cc2)c1 | 0.73
O=C1CCCC(=O)N1c1ccc(N2CCc3ccccc3C2)c([N+](=O)[O-])c1 | 0.58
O=C(CSc1nc2sc3c(c2c(=O)n1-c1ccccc1)CCC3)Nc1ccccc1F | 0.09
COc1ccc(CC(=O)Nc2ccc(-c3nnc(-c4ccco4)o3)cc2)cc1 | 0.77
Cc1ccc(NS(C)(=O)=O)c(Br)c1 | -0.74
CCN(Cc1ccccc1)C(=O)Cn1c(=O)n(-c2ccccc2)c(=O)c2c3c(sc21)CCC3 | -0.99
COc1ccc(-c2nc(-c3cc4cc(Cl)ccc4oc3=O)cs2)cc1 | -0.32
O=S1(=O)N=C(CC2CCCCC2)Nc2ccccc21 | 0.36
Cc1ccc(S(=O)(=O)N2CCN(S(=O)(=O)c3ccccc3)C2)cc1 | 0.97
O=C(COc1ccc2c(c1)C(=O)CC1(CCCCC1)O2)NCc1cccs1 | -1

Continued.
structure | Measles inh
O=C1C(c2ccccc2F)N(Cc2ccccc2)C(=O)CN1C1CCCCCC1 (stereo unspecified) | 1.1
COc1ccc(NC(=O)CSc2nc3ccc(N)cc3s2)cc1 | 0.22
COc1cccc(C(=O)Nc2nnc(-c3ccncc3)s2)c1 | -0.19
O=C1Nc2ccc(C(=O)N3CCOCC3)cc2NC1CS(=O)(=O)Cc1cccc(Br)c1 (stereo unspecified) | 0.58
COc1ccc(CNC(=O)C2COc3ccccc3O2)c(OC)c1 (stereo unspecified) | -0.19
Cc1cc(Oc2ccccc2F)nc(NCc2ccccc2)n1 | -0.1
CC1CCCCN1C(=O)C1c2ccccc2C(=O)N(C)C1c1c[nH]c2ccccc12 (stereo unspecified) | 1.8
CC1CC(C)(C)N(C(=O)c2cccs2)c2ccc(OC(=O)c3cccs3)cc21 (stereo unspecified) | 0.19
CCS(=O)CCSc1nc(-c2ccc(Br)cc2)cc(-c2ccccc2)c1C#N (stereo unspecified) | 0.62
COc1ccc(NC(=O)c2ccc(N3CC4CC(C3)c3cccc(=O)n3C4)c(NC(=O)c3ccccc3Cl)c2)cc1OC (stereo unspecified) | 0.64
C=C(C)Cn1c(SCCC(C)C)nc2sc3c(c2c1=O)CCC3 | -1.1
O=C(CC1Sc2ccc(C(F)(F)F)cc2NC1=O)Nc1ccc(Br)cc1 (stereo unspecified) | -1.2
O=C(CSc1nc(-c2cccs2)cc(C(F)(F)F)n1)NCc1ccco1 | -0.5
CCN(CC)c1ccc(C2N(C(=O)c3ccc(C)cc3)CCN2S(=O)(=O)c2ccc(C)cc2)cc1 (stereo unspecified) | -0.01
CC1CCCN(S(=O)(=O)c2cc(C(=O)O)ccc2F)C1 (stereo unspecified) | 1.5

New compounds follow.
structure | Measles inh
COc1cccc(C2C=C(c3cccc([N+](=O)[O-])c3)Nc3ncnn32)c1OC (stereo unspecified) | -0.4
Cc1cc(C)c(NC(=O)Cn2nnc(-c3ccccc3Cl)n2)c(C)c1 | -0.45
CCC1Oc2ccc(C)cc2N(CC(=O)N2CCN(c3cc(Cl)ccc3C)CC2)C1=O (stereo unspecified) | 0.98
O=C1CCC(=O)N1c1nc2n(n1)C(c1ccccc1)C=C(c1ccc(Cl)cc1)N2 (stereo unspecified) | 2.1
COc1cccc(N2C(=O)CC(N3CCN(C(=O)c4ccco4)CC3)C2=O)c1 (stereo unspecified) | 0.32
O=C(NCc1n[nH]c(=S)n1-c1ccc(Br)cc1)c1cccc(F)c1 | -1.4
CC1=C(C(=O)OCC2CCCO2)C(c2ccc(C)o2)C2=C(CC(c3cccs3)CC2=O)N1 (stereo unspecified) | 2.6
COc1cccc(N2CCN(C(=O)c3cc4nc(-c5ccc(OC)c(OC)c5)cc(C(F)(F)F)n4n3)CC2)c1 | 0.55
O=C(C(Cc1ccccc1)N1C(=O)C2C3c4ccccc4C(c4ccccc43)C2C1=O)N1CCCCC1 (stereo unspecified) | 1.2
CCOc1cc([N+](=O)[O-])cc2c1C(=O)Nc1ccccc1O2 | -0.18
CSc1nc2n(n1)C(c1ccccc1Cl)C(C(=O)Nc1ccc(C)cc1C)=C(C)N2 (stereo unspecified) | -0.27
C=C(C)CN(C)S(=O)(=O)c1ccc(C)cc1 | -0.6
COc1cccc(C(=O)Nc2cc(-c3nc4ncccc4o3)ccc2C)c1 | 0.56
Cc1ccc(S(=O)(=O)C2(C(=O)Nc3ccc(C)c(F)c3)CC2)cc1 | -0.72
CCCc1n(CC(O)COc2ccccc2)c2ccccc2[n+]1C (stereo unspecified) | -0.64

Further structures.
structure | Measles inh
CCC(=O)N1c2ccccc2NC2=C(C(=O)CCC2)C1c1cccnc1 (stereo unspecified) | 0.77
COC(=O)c1ccc(NC(=O)c2ccc(I)o2)cc1 | 0.17
CN(C)CCNC(=O)c1ccc2c(c1)NC(=O)C(N1CCCC1)S2 (stereo unspecified) | 1.8
O=C(O)c1ccc(S(=O)(=O)c2ccc(Cl)c([N+](=O)[O-])c2)cc1 | 0.14
O=C(NCC1OCCc2ccccc21)c1ccc(NC(=O)c2ccccc2)cc1 (stereo unspecified) | -0.28
COc1ccc(C2Oc3c(OC)cccc3C3CC(c4ccc(F)cc4)=NN32)cc1 (stereo unspecified) | -0.58
Cc1c(C(C)C)c(N2CCN(C)CC2)n2c(nc3ccccc32)c1C#N | -0.94
COc1ccccc1C=CC1N(Cc2ccccc2)CCN1Cc1ccccc1 | -0.11
CCC(=O)N1c2ccc(S(=O)(=O)CCC(=O)Nc3ccc(Cl)cn3)cc2CC1C (stereo unspecified) | -0.65
CC1=CC(C)(C)N2C(=O)C(=O)c3cc(OC(=O)c4ccc(Br)cc4)cc1c32 | 1.8
OC(CN1CCOCC1)Cn1cnc2c(SCc3ccccc3)ncnc21 (stereo unspecified) | 1.1
Cc1ccc(C2NC(C(=O)O)CS2)cc1[N+](=O)[O-] (stereo unspecified) | -0.52
Cc1nc(-c2ccccc2)sc1C(=O)Nc1ccc2c3c(cccc13)CC2 | -0.1
CCCC(CCC)C(=O)Nc1c2c(nc3c1CCC3)CCCC2 | -0.11
CCOC(=O)c1ccccc1NC(=O)Cn1c(=O)n(-c2cccc(C(F)(F)F)c2)c(=O)c2c(C)c(C)sc21 | -0.79

Following part
structure | Measles inh
O=C(O)c1ccccc1-c1nc2ccc([N+](=O)[O-])cc2[nH]1 | -0.38
CCCCCn1c(=S)[nH]c2cc(C(=O)O)ccc2c1=O | 0.21
CN(CCCNC(=O)Cn1ncc2c(=O)oc3ccccc3c21)Cc1ccccc1 | -0.78
CC(NCCC(N)=O)C1COc2ccccc2O1 (stereo unspecified) | 0.26
Cc1ccc2cccc(NC(=O)C34CC5CC(CC(C5)C3)C4)c2n1 | -1.5
NC(=O)CSc1nc2ccccc2s1 | 0.08
Cc1cccc(OCC(=O)Nc2ncc(Cc3ccc(F)cc3)s2)c1 | 2.3
COc1ccc(C2C(C(=O)Nc3ccc(Oc4ccccc4)cc3)CCC(=O)N2c2ccc(OC)cc2)cc1 (stereo unspecified) | -1
Cc1sc2nc(-c3ccc(C(C)(C)C)cc3)oc(=O)c2c1C | 0.97
Cc1ccc(NS(=O)(=O)c2cnc[nH]2)c(C)c1 | -0.71
Cc1ccc(-c2cc(C(=O)N3CCC(C)CC3)c3ccccc3n2)cc1C | 0.79
COC(=O)C1=C(C)NC2=C(C(=O)CCC2)C1c1ccccc1Br (stereo unspecified) | 1.1
CCOC(=O)c1c(NC(=O)c2cc([N+](=O)[O-])nn2Cc2ccccc2)sc2c1CCC(C)C2 (stereo unspecified) | 0.07
CC(=O)Oc1cc2sc3ccccc3[nH]c2c2c(=O)c3ccccc3c(=O)c12 | 1.1
O=C(Cc1ccc(Cl)cc1)N1CCN(c2ccc([N+](=O)[O-])cc2)CC1 | -0.41

Structures shown so far that contain an NH in an aromatic ring (10):
structure | Measles inh
CC(C)OCCCNC(=O)C1CCC(Cn2c(=S)[nH]c3ccccc3c2=O)CC1 (stereo unspecified) | -0.62
CC(NC(=O)CCn1c(=S)[nH]c2ccsc2c1=O)c1ccccc1 (stereo unspecified) | -0.5
CC(C)N(C(=O)Cn1c(=O)[nH]c2ccccc21)c1ccccc1 | -0.32
O=C(CSc1nc2[nH]ncc2c(=O)n1-c1ccccc1)c1ccc(Br)cc1 | 0.02
CC1CCCCN1C(=O)C1c2ccccc2C(=O)N(C)C1c1c[nH]c2ccccc12 (stereo unspecified) | 1.8
O=C(NCc1n[nH]c(=S)n1-c1ccc(Br)cc1)c1cccc(F)c1 | -1.4
O=C(O)c1ccccc1-c1nc2ccc([N+](=O)[O-])cc2[nH]1 | -0.38
CCCCCn1c(=S)[nH]c2cc(C(=O)O)ccc2c1=O | 0.21
Cc1ccc(NS(=O)(=O)c2cnc[nH]2)c(C)c1 | -0.71
CC(=O)Oc1cc2sc3ccccc3[nH]c2c2c(=O)c3ccccc3c(=O)c12 | 1.1

(further entries)
structure | Measles inh
COCCN(C(=O)Nc1ccccc1)C(C)c1cccs1 (stereo unspecified) | -0.23
O=C(NC12CC3CC(CC(C3)C1)C2)c1c(O)c2cccc3c2n(c1=O)CC3 | -0.17
COC(=O)c1sc(NC(C)=O)c(C(=O)OC)c1C | 1.3
CCOc1cc2c(cc1OCC)C(c1ccc(Cl)cc1)OC(=O)C2 (stereo unspecified) | 1.4
CCCCN1C(=O)C(O)(CC(=O)c2ccc(C)cc2)c2ccccc21 (stereo unspecified) | -0.36
COc1cccc(NS(=O)(=O)c2ccc3c(c2)C2C=CCC2C(c2ccccc2Cl)N3)c1 (stereo unspecified) | 2.2
O=C(NC(c1ccccc1)c1ccccc1)C(c1ccc(Cl)cc1)N1CCOCC1 (stereo unspecified) | 0.31
NC(=O)CSc1nc2c(c(=O)n1-c1cccc(Br)c1)C1(CCCCC1)Cc1ccccc1-2 | -0.21
O=C(NC1CCCCC1)C1CCCN(S(=O)(=O)c2cccc3nonc23)C1 (stereo unspecified) | 1.5
COc1ccc(NC(=O)c2cc3ccccc3o2)c(OC)c1 | 0.7
O=S(=O)(c1cccs1)N1CCc2ccccc2C1 | -0.85
C=C(C)Cn1c(NCCC)nc2c1c(=O)n(C)c(=O)n2C | 2.3

Some of the compounds tested; the hit share may differ from the screen's.
